# AID504770 = growth inhibitors of E. coli YBA685 in a screen for V. cholerae RctB (chromosome II replication) inhibitors; E. coli YBA685 rctB-dependent plasmid, OD600 growth, 3 h; stronger effect = lower value; z-score (no concentration beside the values); actives 0.27% (n = 130,000);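 active = z-score under -2 on both plates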;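 also: wells of about 30 µL received 100 nL stock; score is relative to mean and SD of the test wells; the first replicate is given; strong numbers were not always called active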
# Ba CapD inh = blocks the Bacillus anthracis CapD enzyme; AID 492967; purified CapD enzyme, fluorescence intensity read-out; stronger effect = lower value; some hits fall short of the stated cut; actives 0.23% (n = 140,000); z-score (no concentration beside the values);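 active = z-score under -4 in either of two replicates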;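 also: stock transfer was 100 nL into about 40 µL; score is relative to mean and spread of the plate; one replicate is shown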
# The depositor's hits bear a star; · = no result given.
SMILES,AID504770,Ba CapD inh
CCOC(=O)COc1nc(C)cc(C)n1,0.05,·
O=C(CSc1ccccc1[N+](=O)[O-])NNC(=S)NC1CC2C=CC1C2 (stereo not given),·,-0.46
Cc1cc(C(=O)NCC2COc3ccccc3O2)c2ccccc2n1 (stereo not given),-0.35,·
O=C(CSc1nc2ccccc2c(=O)n1Cc1ccc2c(c1)OCO2)NCCc1ccccc1,·,-1.2
O=C(Nc1ccc(Br)cc1F)c1cc(S(=O)(=O)N2CCN(c3ccccc3F)CC2)ccc1F,·,3
O=S1(=O)CC(c2ccccc2)CS(=O)(=O)C12CCCC2,-1.4,0.11
O=S(=O)(/N=C(/NC(=S)OC1CCCCC1)c1ccccc1)c1ccccc1,0.95,-0.03
N#CCOc1cc(Sc2ccccc2)ccc1[N+](=O)[O-],·,-0.92
CC12CCCCN1CCCc1c2[nH]c2ccccc12 (stereo not given),-0.8,·
CC1(C)C2CCC1(C)C(N1CCNCC1)C2 (stereo not given),-0.7,-0.77
Cc1[nH]c2ccccc2c1C=Nc1ccc(N=Cc2c(C)[nH]c3ccccc23)cc1,-1.1,1.2
Cc1ccc(CSc2nc3ccc(C(=O)N4CCN(c5ccccc5)CC4)cc3n2C)cc1,-0.25,1.9
O=C(O)CCS(=O)(=O)c1ccc2[nH]c(=O)c(=O)[nH]c2c1,0.95,·
Cc1onc(-c2c(Cl)cccc2Cl)c1COC(=O)NNC(=O)CC1Sc2ccccc2NC1=O (stereo not given),·,-0.68
Nc1c(C(=O)NCc2ccco2)nnn1-c1ccc(Cl)cc1,-0.25,·
CC(=O)OCC(=O)c1cc(C(F)(F)F)cc(C(F)(F)F)c1,-1.3,-0.43
CCC1(C)CC(CCN2C(=O)c3ccccc3C2=O)(c2ccc(C)cc2)CCO1 (stereo not given),1.6,0.48
O=C(NCC1CC1)c1ccccc1NS(=O)(=O)c1ccc(F)cc1F,0.1,2.5
COc1ccc(NC(=O)c2cnn(-c3ccccc3)c2C(F)(F)F)cc1,·,-0.58
Cc1ccc(CCNC(=O)C2CCN(c3nnc(-n4cccc4)s3)CC2)cc1,0.15,0.16
CCN1CCN(C(=O)C(c2ccccc2)c2ccccc2)CC1,-0.3,0.22
C=C(C)CN(CC)Cc1cc(OC)cc(OC)c1,-0.7,0.07
CCN(CC)C(=O)CCCN1C(=O)/C(=C/c2ccc(OC)cc2)SC1=S,-0.35,0.35
O=C(NC1CCCCC1)c1cccnc1SCc1cccc(Br)c1,·,-0.01
O=C(O)CSCSCC(=O)O,·,-1.1
Fc1cccc(F)c1C=Nc1ccc(-c2nc3ccccc3[nH]2)cc1,-0.85,95
COCCCNC(=O)c1cccs1,·,0.15
CCCn1c(C(=O)c2ccc(OC)cc2)nc2ccccc21,-0.45,-3.6
Cc1ccc(C)c(NC(=O)CSC2=NC3C(=O)N(C)C(=O)N(C)C3N2C)c1 (stereo not given),-0.8,·
COc1ccccc1NC(=O)/C(C#N)=C/c1cn(C)c2ccccc12,-1,·
COc1ccc(C2C=C(c3ccccc3)Nc3nc(NC(=O)Cc4ccccc4)nn32)cc1 (stereo not given),1.8,4.7
CC(C)(NO)/C(=N\O)c1ccccc1,·,0.58
COCCCNC(=S)N/N=C/c1ccc[nH]1,·,-1.4
COc1ccc(OS(=O)(=O)c2ccc(-c3csnn3)s2)cc1,·,-0.27
CO/N=C(\CS(=O)(=O)Cc1ccc(OC)cc1)c1ccc(Cl)cc1,·,0.28
COc1nsc(NN)c1C#N,0.25,0.24
Cc1nn(Cc2ccccc2Cl)c2sc(C(=O)NC3CC3)cc12,-0.7,·
CS(=O)(=O)N1CCC(c2noc(-c3ccc(C(F)(F)F)cc3)n2)CC1,-1.1,25
CC(C)C(=O)c1c(O)c2ccccc2oc1=O,-0.5,3.1
COCc1cc(=O)oc2cc(NS(=O)(=O)c3ccc(C)cc3)ccc12,0.1,2.9
CCCC(=O)N1CCN(c2ccc(NC(=S)NC(C)=O)cc2Cl)CC1,-0.55,-0.66
CCCCN(C)C(=O)c1cn(CC)c2nc(C)ccc2c1=O,-0.35,-0.09
Cc1cc(C)n(C2CC(=O)N(N(C)C)C2=O)n1 (stereo not given),0.05,·
CC1Cn2cc(C(=O)Nc3cccc(F)c3)c(=O)c3c(Cl)ccc(c32)O1 (stereo not given),-0.5,19
CCCS(=O)(=O)NCc1ccc2c(c1)cc(C)n2C,-0.1,-0.025
C=CCN1CCN(Cc2nnnn2Cc2ccc(OC)cc2)CC1,0.85,·
C/C(=N/O)c1ccc2c(c1)OCCO2,-0.2,·
O=C(Cn1nnc(-c2cccc([N+](=O)[O-])c2)n1)NNC(=O)OC/C=C/COCc1ccccc1,·,-1.4
N#CCSc1ccc2nnc(CCNS(=O)(=O)c3ccccc3)n2n1,-0.25,-0.035
CCOC(=O)Cn1c(=N)n(Cc2ccc(Cl)c(Cl)c2)c2ccccc21,-0.5,0.62
CCN(CC)c1ccc(/C=N/NC(=O)c2ccccc2)cc1,-0.2,3.9
Cn1c(/C=C/C=C/N2CCCC2)nc2ccccc2c1=O,2.4,0.17
CN(C)CCC(Oc1ccc(S(C)(=O)=O)cc1)c1ccccc1 (stereo not given),·,-0.11
Cc1cc(C)c(C)c(S(=O)(=O)N2CCNCC2)c1C,1.9,-0.14
S=c1nccc(-c2ccccc2)[nH]1,0.1,·
N#CCC(=O)Nc1ccc(C(F)(F)F)cc1N1CCOCC1,0.1,0.19
CCc1cccc2c(C(=O)CSc3nnnn3C3CCCC3)c[nH]c12,-0.6,·
O=C(CC1CCCC1)NC12CC3CC(CC(C3)C1)C2,-0.4,0.085
CCOc1ccccc1NC(=O)C1CCN(c2ncccn2)CC1,0.9,·
O=c1[nH]c2cc(C(F)(F)F)ccc2n(Cc2ccccc2)c1=O,-0.65,14
# Next part:
SMILES,AID504770,Ba CapD inh
CC1CCN(S(=O)(=O)c2cc(Br)ccc2Br)CC1,-0.2,-0.3
O=C(NCc1cccs1)c1cc(-c2ccccc2)oc1C(F)(F)F,0.05,0
O=C1c2ccccc2C(=O)N1COc1cccc2cccnc12,-0.5,·
COc1ccc(C2=N/C(=C/c3cccnc3)C(=O)O2)cc1OC,1.1,-0.22
CCCC(=O)N(c1ccc2oc(C)c(C(=O)OC)c2c1)S(=O)(=O)c1ccc2ccccc2c1,·,0.27
Cn1nnnc1SCC(=O)CSc1nnnn1C,2.2,·
O=C1c2cccc3cccc(c23)N1C(=O)C1CCCCC1,1.2,2.3
O=C(O)c1c[nH]c2ccc(F)cc2c1=O,-0.65,-0.05
c1ccc(CCn2c(SCc3nnc(-c4ccccc4)o3)nc3ccccc32)cc1,-0.25,·
Cn1c(=O)c2c(ncn2CCCCn2cnc3c2c(=O)n(C)c(=O)n3C)n(C)c1=O,-0.5,-0.95
COc1ccc(C2=N/C(=C\c3coc4ccccc4c3=O)C(=O)O2)c(Br)c1,·,1.5
Cc1nn(-c2ccccc2)nc1C(=O)ONC(=O)c1ccccc1,1.1,-0.38
CCC(C)(NC(=O)Cc1ccccc1)C(=O)Nc1ccc2c(c1)OCCO2 (stereo not given),-0.35,-0.68
O=S(=O)(c1cc(Cl)ccc1Cl)N1CCN(Cc2ccc3c(c2)OCO3)CC1,·,-0.4
CCCNc1c(NC(=O)c2ccc3c(c2)OCO3)c(=O)oc2ccccc12,0.05,1.1
Cc1cc2cc(CNC(=O)c3ccc4ccccc4c3)ccc2[nH]1,-1.7,0
CCOC(=O)C(C)Oc1cccc2c(=O)n(CC(=O)NC3CCCCC3)ccc12 (stereo not given),-0.55,·
Cc1ccc2nc(SCC(=O)Nc3ccccc3C(F)(F)F)[nH]c2c1,·,-0.15
N#CCC(=O)NN=C1CCCCCCCCCCC1,0.05,0.46
COC(=O)C1C(=O)NC(SCC(=O)OCc2ccccc2)=C(C#N)C1c1ccccc1[N+](=O)[O-] (stereo not given),·,-0.44
CCC(=O)N1CCc2cc(Br)cc(S(=O)(=O)Nc3c(C)n(C)n(-c4ccccc4)c3=O)c21,1.8,-0.84
CSc1nc(-c2ccccc2)ccc1C(N)=O,0.3,5.1
Cc1c(C(=O)N2CCCCC2)sc(N)c1C#N,-0.3,-0.4
CN(C)CCNc1cc(-c2cccnc2)nc2ccccc12,-0.4,19
CC1=NOC(=O)/C1=C\c1cccs1,-1.7,0.18
O=C(c1ncc[nH]1)c1cccs1,-0.65,-3.2
CC(=O)N(Cc1nc(-c2ccccc2)no1)C1CCCCC1,0.5,·
COc1nnc(-c2ccc(C)cc2)c2ccccc12,·,0.23
Cc1ccc(C2SCCN2S(C)(=O)=O)cc1 (stereo not given),-0.15,-0.46
O=C(CSc1nnnn1-c1ccccc1)c1ccc2c(c1)OCO2,1.2,-0.1

# A different layout for three compounds above:
# Screens in order: AID504770	Ba CapD inh
O=C(CSc1nnnn1-c1ccccc1)c1ccc2c(c1)OCO2
→ 1.2	-0.1
CC(=O)N(Cc1nc(-c2ccccc2)no1)C1CCCCC1
→ 0.5	·
CCOC(=O)C(C)Oc1cccc2c(=O)n(CC(=O)NC3CCCCC3)ccc12 (stereo not given)
→ -0.55	·

# New compounds follow.
SMILES,AID504770,Ba CapD inh
CC(=O)NC1c2ccccc2Oc2ccccc21,-0.4,0.045
COCCOC(=O)C1=C(C)NC2=C(C(=O)CC(c3ccc(OC)c(OC)c3)C2)C1c1ccccc1OC(C)C (stereo not given),·,2
CC(C)Sc1ccc2nnc(-c3cccnc3)n2n1,2.1,·
O=C(N/N=C/c1c[nH]c2cc(OCc3ccccc3)ccc12)c1ccccc1Cc1ccccc1,·,0.15
CC(=O)O[C@]1(C)C(=O)OC/C2=C/CN(C)CCC(OC(=O)[C@@](O)(C(C)O)C[C@@H]1C)C2=O (stereo not given in full),-0.8,0.59
Cc1c(Cl)cccc1NC(=O)/C(=C/c1ccc2c(c1)OCO2)NC(=O)c1ccccc1Br,·,1.7
COc1ccc2nc(SCC(=O)Nc3ccc(C(C)C)cc3)n(S(=O)(=O)c3ccc(C)cc3)c2c1,·,-0.31
CCOC(=O)C1=CN(Cc2ccc(Cl)cc2)C=C(C(=O)OCC)C1c1ccc(OC)c(OC)c1,·,29
Cc1cc(C)cc(OC(F)(F)C(=O)Nc2cc(Cl)cc(Cl)c2)c1,·,0.33
O=C(O)CN1Cc2ccccc2C1,-0.4,·
CCc1nnc(NC(=O)C2=CN3CCS(=O)(=O)N=C3C=C2)s1,-2.1,·
O=C(CN=C1NS(=O)(=O)c2ccccc21)OCC(=O)c1ccccc1,-0.4,·
CCCNC(=O)NCc1ccc(N2CCCC2=O)cc1,2,-0.66
COc1ccc(CSc2ncc3c(n2)-c2cc(C)ccc2SC3)cc1,·,-0.36
Cc1cc(C(C)(C)C)cc(C)c1[N+](=O)[O-],·,-0.57
Cn1nccc1N1C(=O)CCC1=O,·,-0.24
Cc1[nH]n(-c2nc3ccccc3s2)c(=O)c1C,-0.95,·
O=C(O)C1Cc2c([nH]c3ccccc23)C(c2ccc(Br)cc2)N1 (stereo not given),·,1.8
CCOC(=O)Cc1csc(NS(=O)(=O)c2cn(C)cn2)n1,2.2,-0.45
Cc1ccc(CN2CCCC(CO)C2)cc1 (stereo not given),0.15,-0.12
CC(Oc1cccc(Cl)c1)n1cncn1 (stereo not given),-0.15,0.095
COc1cc(NC(=O)N2CCOc3ccccc32)cc(OC)c1OC,-1.1,0.35
O=C(O)C1CCN(c2nc3ccccc3o2)CC1,-0.4,-0.39
CC1(C)Cc2cccc(OCC(=O)Nc3ccc(OCC(N)=O)cc3)c2O1,2.4,·
C=CCNC(=O)CN1CCC(C(O)(c2ccccc2)c2ccccc2)CC1,-0.2,·
N#CC1(C(=O)OCC(=O)N2CCN(C(=O)COC(=O)C3(C#N)CCCC3)CC2)CCCC1,0.55,·
C[C@H](c1ccccc1)N1C(=O)CC[C@H]2CC(=O)CC[C@@H]21,-0.45,-0.09
COc1ccc(-c2cc(C(=O)NC3CCCCC3C)c3ccccc3n2)cc1 (stereo not given),-0.25,2.3
CC(Oc1ccc(C(C)(C)C)cc1)C(N)=O (stereo not given),0.65,-0.01
Cn1c(O)c(C=NCC2CCN(C(=S)Nc3ccccc3)CC2)c(=O)n(C)c1=O,-0.05,·
O=C(OCCN1C(=O)c2cccc3c(N4CCOCC4)ccc(c23)C1=O)c1cc(Cl)cc(Cl)c1,·,0.24
O=C(O)c1cccc(-c2cccs2)c1,-0.7,5.4
O=C(O)CCC(=O)NCc1csc2ccc(Cl)cc12,-0.25,-0.31
c1ccc(Nc2ccccc2)cc1,-0.8,·
CCCc1nc(NCc2ccccc2)c(C#N)c2c1CCCC2,0.6,-1.5
CCOC(=O)/C(N=Nc1ccc(C)cc1C)=C(\C)O,·,-0.7
Cn1ncc2c1CS(=O)(=O)CC2=O,·,0.33

# Molecules shown so far that have two or more sulfur atoms:
SMILES,AID504770,Ba CapD inh
O=C(CSc1ccccc1[N+](=O)[O-])NNC(=S)NC1CC2C=CC1C2 (stereo not given),·,-0.46
O=S1(=O)CC(c2ccccc2)CS(=O)(=O)C12CCCC2,-1.4,0.11
O=S(=O)(/N=C(/NC(=S)OC1CCCCC1)c1ccccc1)c1ccccc1,0.95,-0.03
CCN(CC)C(=O)CCCN1C(=O)/C(=C/c2ccc(OC)cc2)SC1=S,-0.35,0.35
O=C(O)CSCSCC(=O)O,·,-1.1
COc1ccc(OS(=O)(=O)c2ccc(-c3csnn3)s2)cc1,·,-0.27
N#CCSc1ccc2nnc(CCNS(=O)(=O)c3ccccc3)n2n1,-0.25,-0.035
Cn1nnnc1SCC(=O)CSc1nnnn1C,2.2,·
Cc1ccc(C2SCCN2S(C)(=O)=O)cc1 (stereo not given),-0.15,-0.46
COc1ccc2nc(SCC(=O)Nc3ccc(C(C)C)cc3)n(S(=O)(=O)c3ccc(C)cc3)c2c1,·,-0.31
CCc1nnc(NC(=O)C2=CN3CCS(=O)(=O)N=C3C=C2)s1,-2.1,·
COc1ccc(CSc2ncc3c(n2)-c2cc(C)ccc2SC3)cc1,·,-0.36
CCOC(=O)Cc1csc(NS(=O)(=O)c2cn(C)cn2)n1,2.2,-0.45

# Compound activity from PubChem BioAssay.
